rRNA inh HTS: selective bacterial rRNA inhibition in E. coli | GFP signal change (wild-type ribosome), % (test concentration not listed) | hit rate 1.6% among 350,000 | E. coli WT GFP vs humanized-ribosome RFP mutants, fluorescence, 24 h; hits give low values; DMSO median 0, no signal -100;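 active = significant combined selectivity score with lowered wild-type GFP, culture density cut under 30%, mutant RFP and density less affected; inactive = any of these conditions unmet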; note: one replicate is shown; some compounds called inactive have numbers as strong as hits
MLL AF4-AF9 inh: inhibitors of human MLL-AF4/AF9 interaction. P42568. inhibition, % at 10 µM. AlphaScreen, biotin-AF4 peptide binding to FLAG-AF9. hit rate 0.47% among 350,000. AID 651704;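 active = every replicate reaching a set inhibition limit, whatever the replicate mean, cut at about 25% in these data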;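 note: 0% = plate neutral control median and 100% = total signal loss; the record names both 10 and 1 µM as test concentration; the first replicate is given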
Target sequence (P42568 whole entry, looked up): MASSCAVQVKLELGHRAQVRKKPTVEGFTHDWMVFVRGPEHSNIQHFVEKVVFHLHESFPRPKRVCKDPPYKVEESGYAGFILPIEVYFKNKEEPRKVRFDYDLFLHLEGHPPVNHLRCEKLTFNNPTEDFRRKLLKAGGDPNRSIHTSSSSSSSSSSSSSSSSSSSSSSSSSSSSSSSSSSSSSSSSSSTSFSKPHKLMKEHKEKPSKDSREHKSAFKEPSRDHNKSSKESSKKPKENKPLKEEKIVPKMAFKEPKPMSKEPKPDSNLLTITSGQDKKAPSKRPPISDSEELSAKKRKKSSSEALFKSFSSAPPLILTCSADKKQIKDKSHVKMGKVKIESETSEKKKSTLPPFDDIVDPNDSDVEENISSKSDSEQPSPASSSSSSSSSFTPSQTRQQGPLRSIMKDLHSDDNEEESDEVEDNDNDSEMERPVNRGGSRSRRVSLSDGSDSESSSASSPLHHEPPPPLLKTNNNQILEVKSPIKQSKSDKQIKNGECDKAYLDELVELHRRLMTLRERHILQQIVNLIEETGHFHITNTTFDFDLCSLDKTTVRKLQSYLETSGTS
rRNA inh HTS OD600: recorded beside rRNA inh HTS, whose call it bears; OD600 change, %; measured here: OD600 growth;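 optical density of the mix in the first replicate; 0 = DMSO median and -100 = no signal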
rRNA inh HTS RFP: also measured in rRNA inh HTS; calls as there; RFP signal change, %; measured here: RFP humanized mutant strains;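 first replicate; 0 = DMSO median and -100 = no signal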
Numbers without * were called inactive; & = joins results of further samples.

Letters – A = rRNA inh HTS; B = rRNA inh HTS OD600; C = rRNA inh HTS RFP; D = MLL AF4-AF9 inh
> Cn1cnc(S(=O)(=O)N2CC[C@@H]3[C@H]2c2cc(C#CC4CCCC4)ccc2N[C@@H]3CO)c1
  A: 0.1; B: 5.8; C: 1.1; D: 7.2

> CNC(=O)C[C@@H]1CC[C@H]2[C@@H](COc3ccc(NC(=O)c4ccccc4OC)cc3C(=O)N2C)O1
  A: 1.2; B: 1.1; C: -1.3; D: -0.2

> CC(=O)N1CC(=O)N2[C@@H](CO)[C@@H](c3ccc(C#Cc4cccnc4)cc3)[C@@H]2C1
  A: 7.9; B: 2.5; C: -0.8; D: -2.0

> O=C(Nc1ccccc1F)N1CC(=O)N2[C@H](C1)[C@H](c1ccc(C#CC3CCCC3)cc1)[C@@H]2CO
  A: -19.9; B: -59.2; C: 25.5; D: 1.2

> C[C@@H]1CCCCO[C@H](CN(C)S(=O)(=O)c2ccccc2)[C@H](C)CN([C@H](C)CO)C(=O)c2cc(NC(=O)C3CCCCC3)ccc2O1
  A: -0.7; B: -4.5; C: 2.7; D: 1.2

> CNC[C@@H]1Oc2ccc(NC(=O)Nc3ccc(OC)cc3)cc2CC(=O)N([C@@H](C)CO)C[C@@H]1C
  A: -0.1; B: 2.5; C: -1.1; D: -0.6

> C[C@@H]1CN([C@H](C)CO)C(=O)c2cc(NC(=O)Nc3ccc(F)cc3)ccc2O[C@@H](C)CCCCO[C@H]1CN(C)S(=O)(=O)c1cn(C)cn1
  A: 2.0; B: 17.5; C: -1.0; D: -1.0

> COc1ccccc1NC(=O)N1[C@@H]2CNC[C@H]1[C@@H]2c1ccc(-c2ccc(C#N)cc2)cc1
  A: 2.2; B: -12.1; C: 17.0; D: 6.6

> CS(=O)(=O)Nc1ccc2c(c1)[C@@H]1C[C@H](CC(=O)O)O[C@H](CO)[C@@H]1O2
  A: 3.6; B: 1.4; C: 0.9; D: -2.5

> CCCC(=O)Nc1ccc2c(c1)C(=O)N(C)[C@H]1CC[C@@H](CC(=O)NCCc3ccccc3)O[C@@H]1CO2
  A: 2.9; B: 1.0; C: -2.0; D: -1.5

> Cc1ccccc1-c1ccc([C@H]2[C@H]3CN(C(=O)Nc4ccc(F)cc4)CC(=O)N3[C@H]2CO)cc1
  A: -33.5; B: -59.8; C: 3.9; D: -0.6

> CS(=O)(=O)N1CC(=O)N2[C@@H](CO)[C@H](c3ccc(C#CC4CCCC4)cc3)[C@@H]2C1
  A: -2.1; B: 0.2; C: 1.5; D: 1.3

> CCN(C[C@@H]1[C@@H](c2ccc(-c3ccccc3F)cc2)[C@@H](CO)N1C(C)=O)C(C)=O
  A: -0.3; B: 0.2; C: -3.5; D: -3.8

> CNC[C@H]1Oc2c(NC(=O)Nc3ccc(OC)cc3)cccc2C(=O)N([C@H](C)CO)C[C@H]1C
  A: -1.1; B: -5.7; C: -2.1; D: -0.6

> CCCC#Cc1ccc([C@@H]2[C@H](CO)N3C(=O)CN(C(=O)Cc4cccnc4)C[C@@H]23)cc1
  A: -1.1; B: 8.7; C: -1.4; D: -1.4

> Cc1ccc(-c2ccc(C3[C@H]4CNC[C@@H]3N4Cc3cccc(F)c3)cc2)cc1 (stereo partly specified)
  A: -2.8; B: -27.5; C: -7.6; D: 0.9

> Cc1cccc(-c2ccc([C@@H]3[C@H]4CN(C(=O)c5ccccc5)CC(=O)N4[C@H]3CO)cc2)c1
  A: -30.2; B: -64.3; C: 12.8; D: 2.4

> CC(C)CC#Cc1ccc([C@H]2[C@@H](CO)N3C(=O)CN(C(=O)c4ccccn4)C[C@H]23)cc1
  A: 0.9; B: 3.8; C: 0.7; D: 0.4

> O=C([C@H]1[C@H](CO)[C@H]2Cn3c(cccc3=O)[C@H]2N1CC1CCCCC1)N1CCOCC1
  A: -2.6; B: -3.1; C: -5.8; D: -0.5

> COC(=O)C[C@H]1CC[C@H]2[C@@H](COc3ccc(NC(=O)c4cccs4)cc3C(=O)N2C)O1
  A: 1.6; B: 2.2; C: 0.2; D: -1.0

> CCC(=O)N1[C@H](CO)[C@H](c2ccc(C3=CCCCC3)cc2)[C@H]1CNCC1CCC1
  A: 1.7; B: -12.4; C: 6.0; D: -34.0

> O=C(Nc1ccc(F)cc1)N1CC(=O)N2[C@H](CO)[C@@H](c3ccc(-c4ccc(F)cc4)cc3)[C@H]2C1
  A: -3.1; B: -46.4; C: 16.5; D: 2.2

> O=C(c1ccncc1)N1CC2(C1)[C@@H](c1ccccc1)[C@@H](CO)N2CC1CC1
  A: 1.5; B: 0.4; C: -1.5; D: -0.4

> CC(C)CC#Cc1ccc([C@H]2[C@@H](CO)N3C(=O)CN(C(=O)NC4CCCCC4)C[C@H]23)cc1
  A: -42.1; B: -65.3; C: 18.0; D: 2.1

> CC(C)NC(=O)Nc1ccc2c(c1)CC(=O)N([C@@H](C)CO)C[C@@H](C)[C@H](CN(C)C(=O)Nc1ccc(F)cc1)O2
  A: 2.6; B: 7.9; C: -0.7; D: -9.9

> COc1ccc2c3c(n(C)c2c1)[C@@H](CO)N(C(=O)Nc1ccc(F)cc1)CC31CCN(C(=O)c2ccc3c(c2)OCO3)CC1
  A: -2.8; B: 0.3; C: -2.8; D: -2.4

> CN(C)C(=O)[C@H]1[C@H](CO)[C@H]2Cn3c(ccc(-c4cccc(F)c4)c3=O)[C@@H]1N2CC1CC1
  A: 0.6; B: 4.4; C: -3.3; D: -2.1

> CN(C)CC(=O)N1[C@H](CO)[C@H](c2ccc(C#CC3CCCCC3)cc2)[C@@H]1C#N
  A: -53.2; B: -72.2; C: -5.6; D: 11.7

> CN1CCN(C(=O)C[C@H]2CC[C@@H]3[C@@H](COc4ccc(NC(=O)C5CCCC5)cc4C(=O)N3C)O2)CC1
  A: 5.6; B: -4.4; C: 0.6; D: 47.0*

> C[C@@H]1CN([C@@H](C)CO)C(=O)Cc2cc(NS(C)(=O)=O)ccc2O[C@H]1CN(C)Cc1ccc(C(F)(F)F)cc1
  A: -0.8; B: -7.7; C: 5.1; D: -1.0

> O=C(C[C@@H]1CC[C@H](NC(=O)C2CCOCC2)[C@@H](CO)O1)NCC1CC1
  A: 3.3; B: -3.1; C: -0.5; D: 2.0

> O=C(C1CCOCC1)N1CC(=O)N2[C@@H](CO)[C@H](c3ccc(C#CC4CC4)cc3)[C@@H]2C1
  A: 2.1; B: 13.0; C: 0.0; D: -0.6

> C[C@@H]1CCCCO[C@H](CN(C)C(=O)c2ccncc2)[C@@H](C)CN([C@@H](C)CO)C(=O)c2cc(N(C)C)ccc2O1
  A: -0.9; B: 2.5; C: -0.9; D: -3.4

> O=C(Nc1ccccc1F)N1[C@@H]2CNC[C@H]1C2c1ccc(-c2ccccc2)cc1 (stereo partly specified)
  A: 3.3&2.8; B: 1.3&-3.8; C: -0.2&-0.4; D: 9.6&-1.0

> COc1ccc(-c2ccc([C@@H]3[C@H]4CN(C(=O)C5CCOCC5)CC(=O)N4[C@H]3CO)cc2)cc1
  A: -3.7; B: 12.2; C: -5.4; D: -3.3

> C[C@H](CO)N1C[C@H](C)[C@@H](CN(C)C(=O)c2cccc(F)c2)Oc2ncc(-c3cncnc3)cc2C1=O
  A: 0.5; B: 1.9; C: -2.3; D: -1.2

> CCCC#Cc1ccc([C@@H]2[C@@H](CO)N3C(=O)CN(C(=O)CN4CCOCC4)C[C@@H]23)cc1
  A: 3.5; B: 2.1; C: -1.7; D: -8.3

> C[C@@H]1CN([C@H](C)CO)C(=O)Cc2cc(NS(C)(=O)=O)ccc2O[C@@H]1CN(C)Cc1ccc2c(c1)OCO2
  A: 1.1; B: 2.4; C: -0.8; D: 0.0

> C[C@@H]1CN([C@H](C)CO)C(=O)c2cc(NC(=O)CCCN(C)C)ccc2O[C@@H](C)CCCCO[C@@H]1CN(C)Cc1ccc(C(=O)O)cc1
  A: 2.3; B: 14.8; C: -3.3; D: -17.9

> CCN1[C@@H]2c3ccc(C4=CCCC4)c(=O)n3C[C@@H]2[C@@H](CO)[C@@H]1C(=O)NCCCN(C)C
  A: -0.7; B: -0.1; C: -1.2; D: 6.0

> C[C@@H]1CCCCO[C@@H](CN(C)Cc2ccccc2)[C@@H](C)CN([C@H](C)CO)C(=O)c2cc(NS(=O)(=O)c3cn(C)cn3)ccc2O1
  A: 1.6; B: 5.6; C: -1.7; D: -11.1

> CCC(=O)N1[C@@H]2Cn3c(cccc3=O)[C@H]1[C@@H](C(=O)NC1Cc3ccccc3C1)[C@@H]2CO
  A: 2.6; B: 12.9; C: -3.3; D: 0.0

> CCCN1[C@H](C(=O)N[C@@H](C)c2ccccc2)[C@@H](CO)[C@@H]2Cn3c(cccc3=O)[C@@H]21
  A: 4.6; B: 3.7; C: 3.8; D: -4.8

> COc1ccc(NC(=O)Nc2ccc3c(c2)[C@@H]2C[C@@H](CC(=O)O)O[C@H](CO)[C@@H]2O3)cc1
  A: 2.3; B: 6.4; C: 0.4; D: -3.2

> O=C(Nc1ccc(F)cc1)N1CC(=O)N2[C@H](CO)[C@H](c3ccc(-c4ccccc4)cc3)[C@@H]2C1
  A: -21.9; B: -57.0; C: 14.4; D: 1.6

> Cc1ccccc1-c1ccc(C2[C@H]3CNC[C@@H]2N3S(=O)(=O)c2cccc(F)c2)cc1 (stereo partly specified)
  A: -59.3&-9.2; B: -72.2&-38.2; C: -5.9&18.7; D: 2.1&-1.9

> O=C(Nc1ccc(F)cc1)N1[C@@H]2CNC[C@H]1C2c1ccc(-c2ccccc2)cc1 (stereo partly specified)
  A: -60.9&-51.1; B: -81.5&-73.8; C: -17.0&-4.2; D: 3.0&-3.9

> COCC#Cc1ccc([C@H]2[C@@H](CO)N3C(=O)CN(C(=O)C4CCCC4)C[C@@H]23)cc1
  A: 3.7; B: 10.4; C: -1.3; D: -6.0

> COc1cccc(C(=O)N2C[C@H]3[C@@H](c4ccccc42)[C@H](CO)N3C(=O)c2ccc(F)cc2)c1
  A: 3.2; B: 8.4; C: 0.1; D: -2.9

> O=C(N[C@H]1C=C[C@H](CC(=O)N2CCc3ccccc3C2)O[C@@H]1CO)C1CCOCC1
  A: 3.8; B: 1.0; C: -1.0; D: -5.1

(more compounds)
Letters – A = rRNA inh HTS; B = rRNA inh HTS OD600; C = rRNA inh HTS RFP; D = MLL AF4-AF9 inh
> O=C(CC1CC1)N1CC[C@@H]2[C@H](CO)Nc3ccc(-c4ccc(F)cc4)cc3[C@@H]21
  A: -16.9; B: -31.8; C: 5.2; D: 1.1

> O=S(=O)(c1ccc(Cl)cc1)N1[C@@H]2CNC[C@H]1C2c1ccc(-c2cccnc2)cc1 (stereo partly specified)
  A: -6.7&-1.4; B: 4.3&-11.6; C: 0.3&-0.2; D: -5.9&-2.2

> Cc1noc(C)c1NC(=O)N(C)C[C@@H]1OCCCC[C@@H](C)Oc2ccc(NS(=O)(=O)c3ccccc3)cc2C(=O)N([C@H](C)CO)C[C@@H]1C
  A: 3.0; B: 10.7; C: 1.3; D: -4.1

> CCCN1[C@H](C(=O)N[C@H](C)c2ccccc2)[C@@H](CO)[C@@H]2Cn3c(cccc3=O)[C@@H]21
  A: -2.1; B: -1.3; C: 0.4; D: -2.1

> COc1ccc(S(=O)(=O)N(C)C[C@H]2OCCCC[C@H](C)Oc3ccc(NS(=O)(=O)c4ccc(Cl)cc4)cc3C(=O)N([C@@H](C)CO)C[C@@H]2C)cc1
  A: 2.4; B: 1.6; C: 2.1; D: -0.3

> CNC[C@@H]1OCCCC[C@@H](C)Oc2ccc(NC(=O)Nc3ccc(F)cc3)cc2C(=O)N([C@@H](C)CO)C[C@@H]1C
  A: 4.0; B: 2.8; C: -0.2; D: 0.6

Only rRNA inh HTS RFP, for some of the entries so far:
Compound,rRNA inh HTS RFP
O=C(CC1CC1)N1CC[C@@H]2[C@H](CO)Nc3ccc(-c4ccc(F)cc4)cc3[C@@H]21,5.2
Cc1noc(C)c1NC(=O)N(C)C[C@@H]1OCCCC[C@@H](C)Oc2ccc(NS(=O)(=O)c3ccccc3)cc2C(=O)N([C@H](C)CO)C[C@@H]1C,1.3
COc1ccc(S(=O)(=O)N(C)C[C@H]2OCCCC[C@H](C)Oc3ccc(NS(=O)(=O)c4ccc(Cl)cc4)cc3C(=O)N([C@@H](C)CO)C[C@@H]2C)cc1,2.1
CNC[C@@H]1OCCCC[C@@H](C)Oc2ccc(NC(=O)Nc3ccc(F)cc3)cc2C(=O)N([C@@H](C)CO)C[C@@H]1C,-0.2

Record cards, from the list above. Screens in order: rRNA inh HTS, rRNA inh HTS OD600, rRNA inh HTS RFP, MLL AF4-AF9 inh
O=S(=O)(c1ccc(Cl)cc1)N1[C@@H]2CNC[C@H]1C2c1ccc(-c2cccnc2)cc1 (stereo partly specified) is listed with -6.7&-1.4, 4.3&-11.6, 0.3&-0.2, -5.9&-2.2
Cc1noc(C)c1NC(=O)N(C)C[C@@H]1OCCCC[C@@H](C)Oc2ccc(NS(=O)(=O)c3ccccc3)cc2C(=O)N([C@H](C)CO)C[C@@H]1C is listed with 3.0, 10.7, 1.3, -4.1
O=C(CC1CC1)N1CC[C@@H]2[C@H](CO)Nc3ccc(-c4ccc(F)cc4)cc3[C@@H]21 is listed with -16.9, -31.8, 5.2, 1.1
COc1ccc(S(=O)(=O)N(C)C[C@H]2OCCCC[C@H](C)Oc3ccc(NS(=O)(=O)c4ccc(Cl)cc4)cc3C(=O)N([C@@H](C)CO)C[C@@H]2C)cc1 is listed with 2.4, 1.6, 2.1, -0.3

Only part of the results is shown. The share of hits here may be higher or lower than overall.
